From PubChem
RecA splice inh = inhibitors of M. tuberculosis RecA intein splicing | inhibition, %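 (about 9 µM by stock and volumes)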 | 290,000 tested, 0.75% active | cell-free RecA intein splicing, fluorescence | P9WHJ3; in the data active = inhibition above about 30%; inconclusive = no clear call, values can overlap the other calls;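 also: 0% = vehicle wells and 100% = reference inhibitor control wells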
Target sequence (P9WHJ3 whole entry, looked up, canonical isoform): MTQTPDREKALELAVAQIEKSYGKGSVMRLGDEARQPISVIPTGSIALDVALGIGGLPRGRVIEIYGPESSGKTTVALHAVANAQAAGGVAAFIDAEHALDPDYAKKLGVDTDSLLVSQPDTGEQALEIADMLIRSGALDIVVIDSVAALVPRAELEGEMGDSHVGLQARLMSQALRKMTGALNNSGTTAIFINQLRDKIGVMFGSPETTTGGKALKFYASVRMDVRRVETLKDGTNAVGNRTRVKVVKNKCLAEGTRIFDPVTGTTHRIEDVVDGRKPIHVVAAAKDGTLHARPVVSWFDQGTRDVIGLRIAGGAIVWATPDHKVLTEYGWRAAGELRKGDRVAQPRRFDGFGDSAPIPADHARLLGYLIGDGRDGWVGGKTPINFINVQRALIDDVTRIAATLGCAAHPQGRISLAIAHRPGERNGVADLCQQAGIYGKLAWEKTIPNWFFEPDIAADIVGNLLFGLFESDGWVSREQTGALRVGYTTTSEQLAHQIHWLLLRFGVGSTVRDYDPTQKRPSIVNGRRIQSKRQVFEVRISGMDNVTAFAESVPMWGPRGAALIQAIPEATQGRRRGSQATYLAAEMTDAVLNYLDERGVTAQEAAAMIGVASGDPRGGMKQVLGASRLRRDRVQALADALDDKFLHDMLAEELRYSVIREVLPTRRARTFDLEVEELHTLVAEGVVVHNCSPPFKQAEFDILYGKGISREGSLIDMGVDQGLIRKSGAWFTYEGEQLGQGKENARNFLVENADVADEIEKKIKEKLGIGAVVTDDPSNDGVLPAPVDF
YopH PTP inh = YopH (Yersinia) phosphatase inhibition; fluorescence Ex485/Em525; inhibition, %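 (about 10 µM by stock and volumes)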; 140,000 tested, 0.16% active; AID 898;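 active = inhibition of 50% or more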;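 also: controls were vehicle for no effect and minimum signal wells for full effect; inactives centre near -20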
Mtb growth = M. tuberculosis H37Rv growth inhibitors, H37Rv strain (AID 1626) | 220,000 tested, 0.95% active | one-dose inhibition, % at 10 µM; IC50 in µM for titrated hits | M. tuberculosis H37Rv growth inhibition; higher % means a stronger effect;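 active = confirmed in a dose series; inconclusive = inhibition above 80% but not taken into the dose series; inactive = below 80% or under 30% at every dose of the series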;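 also: bacteria incubated seven days before Alamar blue readout; 0% = bacteria only wells and 100% = bacteria with antibiotic wells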
Arbovirus inh = antivirals against arbovirus infection; arbovirus infection cell-based antiviral screen; inhibition, % at 10 µM; 200,000 tested, 0.37% active;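 active = inhibition from about 30%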;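 also: bluetongue infection of BSR cells; cell survival read as ATP light after 72 h; 0% = infected wells without compound and 100% = uninfected wells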
Mtb betalactam = beta-lactam sensitization of Mtb H37Rv; M. tuberculosis H37Rv growth with meropenem, percent inhibition; hits of this screen are not shown here; inhibition, % at 25 µM; 330,000 tested, 0.27% active; AID 434955;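 active = about 74% or more and at least 40 points above the plate without the antibiotic, then above 30% in a dose series; inconclusive = first-round hits that could not be retested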;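 also: growth measured after seven days incubation then overnight dye step; 0% = bacteria only wells and 100% = bacteria with antibiotic; twin plates without the antibiotic show which effects depend on it; some results filed as inactive read as strong as hits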
Arbovirus inh repeat = second read-out of Arbovirus inh, no call of its own (marks repeat the call); inhibition, %; measured here: 10K subset replicate screen; many hits read low in the repeat;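 first of two repeat runs on a subset; 0% = infected and 100% = uninfected wells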
An asterisk follows results filed as active; ? = inconclusive; . = no result given.

SMILES	RecA splice inh	YopH PTP inh	Mtb growth	Arbovirus inh	Mtb betalactam	others
CC(=O)Nc1ccc(SC[C@H](Cc2ccccc2)N2CCN(CC(C)C)CCC2=O)cc1	-1.6	.	16%	.	1
O=C(CNCc1ccccc1Cl)Nc1ccc2c(c1)OCCO2	-0.7	.	-4%	.	-11
O=C(CCN1C(=O)C2C3CCC(C3)C2C1=O)OCC(=O)c1cccc([N+](=O)[O-])c1 (centres undefined)	-1.0	-15	-6%	4	11
Cc1ccc(C)c(NS(=O)(=O)c2ccc(NC(=O)CSc3ccc(Cl)cc3)cc2)c1	0.9	-5	-9%	9	-7
COc1ccc(N=C2SC(C(=O)Nc3ccc4c(c3)OCO4)CC(=O)N2C)cc1 (centres undefined)	0.6	-35	8%	-17	3
COc1ccc(-c2noc(-c3cc(C)cc(C)c3)n2)cc1OC	0.3	.	6%	11	-3	Arbovirus inh repeat=18
CCOc1ccc(NC(=O)CSc2nc3ccccc3nc2N2CCCC2)cc1	-3.0	.	.	.	-3
COc1ccc(NC(=O)COC(=O)c2ccc(S(=O)(=O)N(C)c3ccccc3OC)cc2)c(OC)c1	.	.	-8%	-19	.
O=C(Nc1ccc(F)cc1)C(c1ccccc1)N1CCN(S(=O)(=O)c2ccc3ccccc3c2)CC1 (centres undefined)	-1.8	-17	7%	14	3
O=C(COC(=O)c1ccccn1)c1ccc(Br)cc1	-3.3	8	-19%	-6	-1
CCOC(=O)N1CCC(N2CCN(Cc3ccccc3)C(CCO)C2)CC1 (centres undefined)	-0.9	.	-9%	2	6
Cc1ccc(NC(=O)C2C3CCCC2C3c2ccccc2)cc1C (centres undefined)	0.6	-37	2%	4	-7
O=[N+]([O-])c1cccc(-c2ccc(C(=S)N3CCN(c4ccccc4)CC3)o2)c1	4.0	.	5%	.	-3
O=C(CCN1CCN(c2ccccc2)CC1)Nc1ccccc1F	-1.2	4	-6%	8	-2
COc1ccc(CN(C)C(=S)Nc2ccc(Cl)cc2Cl)cc1	1.6	.	-1%	7	-9
CC1C(=O)N(Cc2ccccc2F)c2ccccc2N1C(=O)c1c(F)cccc1F (centres undefined)	8.6	.	.	.	-1
O=C(N1CCN(Cc2ccc3c(c2)OCO3)CC1)C12CC3CC(CC(C3)C1)C2	3.1	.	7%	.	0
O=C(O)c1ccccc1N/N=C/C1=C(N2CCOCC2)C(=C\c2ccccc2)/CC1	5.7	.	-4%	.	46
Brc1ccc(C2=Nn3c(nnc3-c3n[nH]c4c3CCC4)SC2)cc1	3.9	-63	73%	-17	99
CC(C)(C)c1cn(-c2ccccc2)c(=S)[nH]1	-0.6	-52	-5%	5	-13
Cc1ccc(CNC(=O)c2ccc3c(=O)n4c(-c5ccc(C)cc5)csc4nc3c2)cc1	-6.0	.	0%	.	-2
COc1ccc(-n2c(Cc3cccc([N+](=O)[O-])c3)nc3ccccc3c2=O)cc1	-2.4	-24	12%	3	0
CC(=O)c1cccc(NC(=O)c2ccc(S(=O)(=O)N3CCCCC3)cc2)c1	-0.5	-18	7%	-2	-3
O=C(NCCN1CCN(c2cccc(Cl)c2)CC1)C1CCCN(S(=O)(=O)c2cnc[nH]2)C1 (centres undefined)	.	-45	-1%	1	8	Arbovirus inh repeat=-2
CCCn1c(SCc2nc3sc(C)c(C)c3c(=O)[nH]2)nc2ccccc2c1=O	-1.6	-13	5%	-16	-27
Next section
SMILES	RecA splice inh	YopH PTP inh	Mtb growth	Arbovirus inh	Mtb betalactam	others
COc1ccc(-c2ccc(/C=N/NC(=O)c3cccnc3)o2)c([N+](=O)[O-])c1	-4.0	-5	-1%	-5	.
Cc1cc(C)c2c(n1)sc1c(=O)n(Cc3ccccc3Cl)nnc12	4.9	-22	.	-4	.
COC(=O)C1CN(C(=O)C(C)Oc2cc(C)ccc2C(C)C)c2ccccc2O1 (centres undefined)	11	.	.	.	-5
CC(O)(CS(=O)(=O)Cc1ccccc1)c1ccc(Cl)cc1 (centres undefined)	0.5	.	.	.	-8
Cc1csc(SCC(=O)NCc2cccs2)n1	0.5	1	2%	-1	5
Cc1cc(C)n(-c2ccc(C(=O)OCC(=O)NCc3ccc(Cl)cc3)cc2)n1	4.0	-51	6%	2	2
O=S(=O)(c1ccc(NC(=S)NCc2ccc(F)cc2)cc1)N1CCOCC1	-0.2	.	.	.	-3
O=C(OCC(=O)N1CCN(C(=O)COC(=O)c2ccncc2)CC1)c1ccncc1	-0.8	-17	-15%	7	3
CN1CCN(C(=O)c2cc(=O)c3cc(Cl)cc(Cl)c3o2)CC1	0.0	.	.	.	-2
O=C(NC(=S)Nc1cccnc1Cl)c1ccco1	-0.6	.	1%	7	-1
O=C(N/N=C/c1cccnc1)c1ccc(NC(=O)c2ccccc2Cl)cc1	-1.6	.	.	.	3
COC(=O)c1ccc2c(=O)[nH]c(CN3c4ccccc4CC3C)nc2c1 (centres undefined)	0.1	3	8%	-4	3
CC(C)N(CC#CCC1(O)c2ccccc2-c2ccccc21)CCO	1.2	-20	-13%	15	2
CCN1C(c2ccccc2)C(C)C(=O)C(C)C1c1ccccc1 (centres undefined)	12	-14	-3%	-2	1
COC(=O)c1cc(-c2ccccc2)n(CC(=O)O)c1C	.	-25	-1%	-8	-11
Cc1noc(C)c1-c1nc(CSc2ccccc2)no1	2.3	.	-4%	.	-8
CCN(CC(=O)Nc1ccc(NC(C)=O)cc1)C(=O)CCN1C(=O)c2cccc([N+](=O)[O-])c2C1=O	-4.5	.	.	.	-13
Cc1ccc(NC(=O)COC(=O)C2CSC3(C)CCC(=O)N23)cc1S(=O)(=O)N1CCOCC1 (centres undefined)	-3.3	.	-9%	6	-3
Cc1ccc(NC(=O)CSc2nnc(-c3ccncc3)o2)cc1C	-1.5	.	-8%	4	-6
COc1ccc(Cl)cc1C(Nc1cccnc1)c1ccc2cccnc2c1O (centres undefined)	15	.	14%	-25	9
CCOC(=O)Cc1csc(SCC(=O)N2CCN(c3ccc(OC)cc3)CC2)n1	-1.3	-27	20%	-1	-9
C/C(=N\NC(=O)Cn1nc(C)c([N+](=O)[O-])c1C)c1ccco1	1.7	.	6%	.	-9
CC(=O)O[C@@H]1C[C@H]2C(C)=C[C@H]3OC(=O)[C@@H](C)[C@H]3C[C@H]2[C@]1(C)O	-0.8	.	3%	.	-3
Cc1onc(-c2c(F)cccc2Cl)c1C(=O)NC1CC1	-2.3	.	.	.	-7
Cc1nc2c(c(=O)n1CCC1=CCCCC1)c1nc3ccccc3nc1n2/N=C/c1ccccc1	-0.8	-11	-4%	-1	-13
Further records follow.
SMILES	RecA splice inh	YopH PTP inh	Mtb growth	Arbovirus inh	Mtb betalactam	others
Cn1cnnc1SC(C(=O)c1ccccc1)c1ccccc1 (centres undefined)	.	-10	-13%	-5	-3
CCOC(=O)/C(C#N)=C/c1c(N2CCN(C)CC2)nc2ccccn2c1=O	-9.9	.	.	.	-7
COc1ccc(OC)c(Nc2nc(N)nc(CCl)n2)c1	16	.	79%	.	99
CN(C)/C=C/C(=O)c1ccn(S(=O)(=O)c2ccccc2)c1	0.2	.	.	.	-1
S=C1Nc2ccccc2Sc2ccc(Cl)cc21	-0.5	5	?	-3	37
COc1ccc(S(=O)(=O)N2CC3CC(C2)c2cccc(=O)n2C3)cc1 (centres undefined)	-4.0	.	-2%	-3	-2
CN(C)c1ccc(NC(=O)COC(=O)c2cc(Cl)ccc2[N+](=O)[O-])cc1	-6.3	-14	4%	6	-2
COc1ccc(C(=O)NC(=S)NNC(=O)CNC(=O)C2CCCCC2)cc1	-3.7	.	-2%	11	-1
CCOC(=O)c1c(NC(=O)C2C3CCC(O3)C2C(=O)O)sc(C)c1-c1ccc(F)cc1 (centres undefined)	0.8	-41	-18%	-3	3
Oc1c(C=NCc2ccc(F)cc2)[nH]c2ccc(Br)c(Cl)c12	43*	-16	-17%	-21	-7
Cc1n(CC(O)COCc2ccccc2)c2ccccc2[n+]1C (centres undefined)	0.1	-30	.	-2	-4
COC(=O)CN1C(=O)c2cccc3cccc1c23	-40	.	.	.	-3
NC(=O)CN1CCN(C(=O)NC2CCCCC2)CC1	-2.0	-17	-1%	1	-1	Arbovirus inh repeat=2
CC1CCN(c2nc3c(c(=O)n(C)c(=O)n3C)n2CCSc2nc3ccccc3o2)CC1	-0.6	13	-4%	-1	.
Cc1ccc(NC(=S)NC(=O)c2ccc(-c3ccc(Cl)cc3)o2)c(O)c1	1.0	-26	?	-20	12
O=C(C1CCCC1)N1CCN(S(=O)(=O)c2ccc(Cl)cc2)CC1	2.2	.	.	.	9
N#Cc1cc(C(=O)c2cc(F)ccc2O)cn(-c2nccs2)c1=O	-41	-24	-5%	-16	-1
COC(=O)[C@]1(C)N[C@H](c2ccc(-c3ccc(F)cc3)cc2)[C@@H]2C(=O)N(C)C(=O)[C@@H]21	-2.1	.	.	.	-5
CCOC(=O)N1CCN(C(=O)CSc2ccc(Cl)cc2)CC1	-0.5	-24	-5%	2	-14
COc1ccc(C2C(C(C)=O)=C(O)C(=O)N2c2nc3ccccc3s2)cc1OC (centres undefined)	-2.4	.	-6%	0	-2
Nn1cc(-c2ccccc2)nc1SCC(=O)NCC(F)(F)F	-1.2	.	0%	8	-1
NS(=O)(=O)c1ccc(NCc2cc(Cl)ccc2OCc2ccccc2F)cc1	6.9	-39	5%	-35	43
Cc1ccc(C(=O)Nc2ccnc(-c3cccnc3)n2)cc1	-1.1	.	-8%	10	1
CC(C)C(NS(=O)(=O)c1c(Cl)cccc1Cl)C(=O)OCC(=O)c1c[nH]c2ccccc12 (centres undefined)	5.5	-27	6%	-19	-2
Cn1c(SCC(=O)NC2CCCCC2)nnc1-c1ccc(N)cc1	-0.1	.	-1%	-3	2

Ordered by molar mass (highest first): some entries from above.
SMILES	RecA splice inh	YopH PTP inh	Mtb growth	Arbovirus inh	Mtb betalactam	others
O=C(NCCN1CCN(c2cccc(Cl)c2)CC1)C1CCCN(S(=O)(=O)c2cnc[nH]2)C1 (centres undefined)	.	-45	-1%	1	8	Arbovirus inh repeat=-2
COC(=O)C1CN(C(=O)C(C)Oc2cc(C)ccc2C(C)C)c2ccccc2O1 (centres undefined)	11	.	.	.	-5
O=[N+]([O-])c1cccc(-c2ccc(C(=S)N3CCN(c4ccccc4)CC3)o2)c1	4.0	.	5%	.	-3
CC(=O)c1cccc(NC(=O)c2ccc(S(=O)(=O)N3CCCCC3)cc2)c1	-0.5	-18	7%	-2	-3
COc1ccc(-c2noc(-c3cc(C)cc(C)c3)n2)cc1OC	0.3	.	6%	11	-3	Arbovirus inh repeat=18
Cc1csc(SCC(=O)NCc2cccs2)n1	0.5	1	2%	-1	5
O=C(NC(=S)Nc1cccnc1Cl)c1ccco1	-0.6	.	1%	7	-1

Next part.
SMILES	RecA splice inh	YopH PTP inh	Mtb growth	Arbovirus inh	Mtb betalactam	others
O=C(Nc1nc2ccc(Cl)cc2s1)[C@@H]1CCCN1C(=O)c1cccs1	0.9	-27	7%	-7	-4
CC12Cc3ccc4ccccc4c3C=C1C[N+](C)(C)C2 (centres undefined)	-0.1	-17	-2%	-2	-12
CC1CCCN(C(=O)CSc2nnc(-c3ccncc3)n2C)C1 (centres undefined)	-2.2	.	5%	11	-3
CCC(Oc1ccccc1)C(=O)N1CCN(C(=O)C(CC)Oc2ccccc2)CC1 (centres undefined)	0.1	-16	-6%	13	6
Cc1ccc(Sc2c(O)c3ccccc3n(C)c2=O)cc1	-2.2	-30	0%	4	.
O=C(NCCCN1CCOCC1)C1(c2ccccc2)CCOCC1	-1.3	-29	-10%	-1	13
Cc1nn(Cc2ccc(F)cc2)c(C)c1NC(=O)c1cccnc1Cl	0.4	-17	-4%	6	1
Nc1cccc2[nH]c(C(F)(F)F)nc12	1.4	.	-2%	20	-7
CCCCn1c(CCC)nc([N+](=O)[O-])c1Sc1ccc(Cl)cn1	24	-23	-8%	-18	52
CO/N=C/c1ccc(Sc2ccccc2)c([N+](=O)[O-])c1	13	-13	-2%	-5	3
O=C(NCc1ccccc1)C1=C[C@H](C2CCCCC2)C[C@H](OCc2ccc(CO)cc2)O1	23	.	1%	6	0
COc1ccccc1CNC(=O)C(C)n1cccc1C(=O)c1ccccc1 (centres undefined)	1.6	.	.	.	-5
CCOc1ccc(NC(=O)c2ccccc2NS(=O)(=O)c2ccc(F)cc2)c([N+](=O)[O-])c1	-2.9	-17	-6%	18	4
O=C(CSc1nc(-c2ccccc2)ns1)NCC1CCCO1 (centres undefined)	2.4	.	.	.	99
O=C(NCCc1c[nH]c2ccccc12)C(=O)NCC(c1cccnc1)N1CCN(c2ccccc2)CC1 (centres undefined)	2.6	-14	21%	-8	1
Cc1cc(=O)n2c3c(cccc13)CCC2	-0.1	-2	2%	17	-2
Nn1c(SCC(=O)N2CCOCC2)nnc1-c1ccco1	2.2	-10	-4%	-2	0
CCCC(=O)Nc1ccc(-c2nc3cc(C)c(C)cc3o2)c(O)c1	-0.5	-15	7%	3	4
CS(=O)(=O)N1CCC(C(=O)Nc2ccc(Cl)c(Cl)c2)CC1	-0.3	.	-7%	-1	-9

Some of the compounds tested; the hit share may differ from the screen's.
